# From PubChem
# TRPML1 ag – activates the human TRPML1 channel | Q9GZU1 | TRPML1-expressing cells, Ca2+ dye fluorescence, FDSS; host cell line not named in the record; reference of the full effect not given here | activation, % (test concentration not listed) | 410,000 compounds, 0.12% hits; in the data active = activation above about 50%; inconclusive = about 30% to 50%; inactive = below about 30%; note: 0% is about no effect; the text of the record puts the active cut at 80%
#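 Tetracycline-induced TRPML1-DL cells are seeded and incubated overnight before loading with a no-wash Ca2+ dye and quencher. Agonist activity is taken from the 110 s fluorescence read following compound pin-transfer on an FDSS, before EC80 54-4 challenge.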
# Six1-Eya2 inh – inhibitors of human Six1/Eya2 interaction; Q15475+O00167; AlphaScreen GST-Six1/His-Eya2 binding, biochemical; active compounds read low; control for the full effect not named in the record; activity change, % (test concentration not listed); 360,000 compounds, 0.56% hits; AID 651725; in the data active = activity change below about -65%; inconclusive = about -30% to -65%; inactive = above about -30%; note: % is set by controls: 0 for no effect and ±100 for the full control effect
# Target sequence (O00167 whole entry, looked up): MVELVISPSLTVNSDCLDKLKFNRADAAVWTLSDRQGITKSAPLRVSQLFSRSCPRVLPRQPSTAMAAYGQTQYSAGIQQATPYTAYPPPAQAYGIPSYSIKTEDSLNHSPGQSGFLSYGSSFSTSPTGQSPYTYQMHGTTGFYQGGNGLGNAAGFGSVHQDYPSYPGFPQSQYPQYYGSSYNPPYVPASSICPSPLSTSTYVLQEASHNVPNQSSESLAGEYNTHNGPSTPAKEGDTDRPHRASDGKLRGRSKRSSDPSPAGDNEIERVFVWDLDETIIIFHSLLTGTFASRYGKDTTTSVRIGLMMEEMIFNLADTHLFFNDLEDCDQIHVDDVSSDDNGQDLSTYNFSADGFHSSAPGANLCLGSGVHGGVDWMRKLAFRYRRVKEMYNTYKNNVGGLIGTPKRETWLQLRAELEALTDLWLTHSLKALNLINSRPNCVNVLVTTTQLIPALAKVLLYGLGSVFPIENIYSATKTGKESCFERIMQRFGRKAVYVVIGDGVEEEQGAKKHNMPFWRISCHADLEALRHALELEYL
# Target sequence (Q15475 whole entry, looked up): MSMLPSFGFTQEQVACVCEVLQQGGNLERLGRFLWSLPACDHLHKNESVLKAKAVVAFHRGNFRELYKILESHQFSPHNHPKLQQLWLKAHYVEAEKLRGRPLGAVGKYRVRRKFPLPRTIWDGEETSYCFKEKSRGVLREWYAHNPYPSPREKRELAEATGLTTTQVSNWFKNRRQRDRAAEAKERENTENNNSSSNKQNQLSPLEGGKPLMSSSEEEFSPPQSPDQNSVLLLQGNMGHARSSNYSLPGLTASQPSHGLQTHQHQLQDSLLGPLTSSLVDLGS
#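 GST-Six1 + His-Eya2 (5X stock: 250/500 nM); Tris pH 8.0, 300 mM NaCl, 0.05% BSA, 0.02% Tween 20; GSH donor/Ni acceptor beads; 1 h 37 °C dark; AlphaScreen readout.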
# PINK1 modulator – changes PINK1 expression; PINK1 immunofluorescence, high-content cytometry, 24 h; Potency, µM (highest dose often 76.6 µM), for inactives: top-dose activation (PINK1 increase), hits mostly activators; 410,000 compounds, 0.2% hits; active = well fitted activation curve with a large enough effect; inconclusive = small, poorly fitted or top-dose-only effect; inactive = flat fitted curve, though single readings scatter; cell line not stated here;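 note: potency is the fitted concentration of half-maximal effect; % of control where 0% means no effect; nearly all actives have a fitted effect of over 65% in size; a mitochondrial uncoupler was the plate control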
#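 PINK1 protein, normally rapidly degraded, was detected by immunofluorescence after 24 hour compound treatment of a stable cell line. Titration data (5 concentrations) came from laser-scanning cytometry, with CCCP-treated wells as controls.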
# * = called active by the depositor; x = not tested or not shown. Only part of the results is shown; rates above refer to the full screens.
SMILES,TRPML1 ag,Six1-Eya2 inh,PINK1 modulator
Cc1cc(NC(=O)OC(C)(C)C)c(-n2nnnc2C(C(=O)c2ccc3c(c2)OCO3)N2CCN(c3ccccn3)CC2)cc1C (stereo not given),x,-5,x
CC1(C(=O)NCc2ccccc2)CSCC(=O)N1Cc1ccco1 (stereo not given),x,-2,x
COC(=O)C[C@@H]1C=C[C@H](NC(=O)Cc2ccccn2)[C@@H](CO)O1,x,29,x
CSCCC(c1nc2ccccc2[nH]1)n1c(=O)c(-c2ccco2)nc2ccccc21 (stereo not given),x,-3,x
COc1cccc(S(=O)(=O)Nc2ccc3c(c2)C(=O)N(C)C[C@H](OC)[C@H](C)CN(Cc2ccccc2F)[C@@H](C)CO3)c1,x,-4,x
O=C(NC1CCCCC1)C(c1ccc(C(F)(F)F)cc1)n1c(=O)c(-c2ccccc2)nc2ccccc21 (stereo not given),x,-2,x
O=C(Nc1ccc2c(c1)OCCO2)C(c1ccncc1)n1c(=O)c(-c2cc3ccccc3[nH]2)nc2ccccc21 (stereo not given),x,16,x
CC(C)CN1C(=O)CSCC1(C)C(=O)NC(C)C (stereo not given),x,4,x
CCCCNC(=O)C[C@@H]1C[C@@]2(C(=O)OC)CC(C)(C)CC=C2N(Cc2ccco2)C1=O,x,-9,x
COC(=O)[C@@]12C[C@@H](CC(=O)NCC3CCCCC3)C(=O)N(Cc3ccco3)C1=CCC(C)(C)C2,x,-1,x
CC(=O)N1CCC(c2nc3ccccc3n2C(C)C(=O)NCc2ccccc2)CC1 (stereo not given),x,3,x
CCC(c1nc2ccccc2[nH]1)n1c(=O)c(-c2cccnc2)nc2ccccc21 (stereo not given),x,-4,x
Nc1c(-c2ccccc2)nc2ncccn12,x,5,x
COC(=O)[C@@]12C[C@@H](CC(=O)NCC34CC5CC(CC(C5)C3)C4)C(=O)N(Cc3cccc4ccccc34)C1=CCC(C)(C)C2,x,2,x
COc1ccc2c(c1)[C@]1(C[C@H](O)CO1)C(=O)N2C,x,0,x
Cc1ccc(S(=O)(=O)N2[C@H](CC(=O)c3cccs3)OC[C@@H]2C)cc1,x,-5,x
CC(C(=O)NC1CCCC1)n1c(C2CCCC2)nc2ccccc21 (stereo not given),x,5,x
CC(C)(C)OC(=O)Nc1ccccc1-n1nnnc1C(C(=O)c1ccc(F)cc1)N1CCN(c2ccccn2)CC1 (stereo not given),x,6,x
COC(=O)[C@@]12C[C@@H](CC(=O)N3CCCC3)C(=O)N(Cc3ccc4c(c3)OCO4)C1=CCC(C)(C)C2,x,-8,x
O=C(C(=O)N1CCCN(Cc2ccc(F)cc2)CC1)c1ccccc1,x,-4,x
O=C(Nc1cc(Cl)cc(Cl)c1)N[C@@H]1CC[C@@H](CCNS(=O)(=O)c2cccc(F)c2)O[C@@H]1CO,x,-8,x
C[C@@]12CC[C@@H](C3=C(CCC3)C1)N2c1ccccc1,x,-2,x
Cn1cc([C@]2(O)C(=O)Nc3ccccc32)c2ccccc21,x,-6,x
O=C(C[C@H]1CC[C@@H](NC(=O)C2CC2)[C@@H](CO)O1)NCc1ccccc1Cl,x,-3,x
Cc1cccc(C)c1NC(=O)C(c1ccncc1)n1c(=O)c(-c2ccccc2)nc2ccccc21 (stereo not given),x,-4,x
CCCCNC(=O)C[C@@H]1C[C@@]2(C(=O)OC)CCCCC=C2N(CCc2ccc(OC)c(OC)c2)C1=O,x,8,x
Cc1cccc(C)c1NC(=O)C1(C)CN(S(C)(=O)=O)CC(=O)N1CCCn1ccnc1 (stereo not given),x,15,x
CO[C@@H]1CN(C)C(=O)c2cc(NC(=O)Nc3cc(F)ccc3F)ccc2OC[C@H](C)N(C(=O)c2cnccn2)C[C@@H]1C,x,-7,x
CCCCNC(=O)c1nc(C2CCNCC2)oc1-c1ccccc1,x,-8,x
CC(C)NC(=O)C1(C)CN(S(C)(=O)=O)CC(=O)N1CCc1ccc(O)cc1 (stereo not given),x,4,x

# Three compounds from above, arranged by the value under Six1-Eya2 inh, lowest first:
structure,Six1-Eya2 inh
COc1ccc2c(c1)[C@]1(C[C@H](O)CO1)C(=O)N2C,0
CC(C(=O)NC1CCCC1)n1c(C2CCCC2)nc2ccccc21 (stereo not given),5
CCCCNC(=O)C[C@@H]1C[C@@]2(C(=O)OC)CCCCC=C2N(CCc2ccc(OC)c(OC)c2)C1=O,8

# New compounds follow
SMILES,TRPML1 ag,Six1-Eya2 inh,PINK1 modulator
O=S(=O)(NCC[C@@H]1CC[C@H](NS(=O)(=O)c2cccc(F)c2)[C@@H](CO)O1)c1cccc(F)c1,x,10,x
COCCNC(=O)C1C(=O)Nc2ccccc2C(=O)N1C1CCCC1 (stereo not given),x,2,x
CC(C)C(C(=O)NCc1ccccc1)N1CCN(C(=O)C2CCCO2)CC1 (stereo not given),x,29,x
O=C(NC1CCCC1)C(c1ccccc1)n1c(-c2cccc3ccccc23)nc2ccccc21 (stereo not given),x,-9,x
O=C(NC1CCCCC1)C(c1ccncc1)n1c(=O)c(-c2ccccc2)nc2ccccc21 (stereo not given),x,1,x
CO[C@H]1CN(C)C(=O)c2ccc(NC(=O)NC(C)C)cc2OC[C@H](C)NC[C@H]1C,x,1,x
Cc1ccc(-c2nc3ccccc3n2C(C)C(=O)NC(C)(C)C)cc1 (stereo not given),x,4,x
CSCCC(C(=O)NC1CCCC1)n1c(C2CCCC2)nc2ccccc21 (stereo not given),x,-5,x
COC1=CC(=O)OC(c2ccc(C(F)(F)F)cc2)C1 (stereo not given),x,5,x
O=C(NC1CCCCC1)C(c1cccc2ccccc12)n1c(=O)c(-c2cc3ccccc3[nH]2)nc2ccccc21 (stereo not given),x,33,x
CCOC(=O)[C@]12CCCC=C1N(CCC1=CCCCC1)C(=O)[C@H](CC(=O)N1CCSCC1)C2,x,-6,x
COc1ccc(OC)c(CN2C(=O)CSCC2(C)C(=O)NCc2ccccc2)c1 (stereo not given),x,-12,x
O=C(C[C@H]1CC[C@@H](NC(=O)Cc2cccnc2)[C@@H](CO)O1)NCc1ccc2c(c1)OCO2,x,-4,x
COC(=O)[C@@]12C[C@@H](CC(=O)NCCCCc3ccccc3)C(=O)N(Cc3ccccc3)C1=CCC(C)(C)C2,x,-4,x
CC1(C(=O)NCc2ccccc2)CN(S(C)(=O)=O)CC(=O)N1CCCN1CCOCC1 (stereo not given),x,27,x
Cc1nc2ccccc2n1C(C)c1nc2ccccc2n1CC(=O)c1ccsc1 (stereo not given),x,-2,x
O=C(/C=C1\OCc2ccccc21)c1ccccc1,x,4,x
CCOC(=O)CC1(C)Oc2cc(Cl)ccc2N1S(=O)(=O)c1ccc(C)cc1 (stereo not given),x,18,x
CC(C)C(C(=O)NCc1ccccc1)N1CCN(c2ccccc2F)CC1 (stereo not given),x,1,x
CCOC(=O)[C@]12CCCC=C1N(CCC1=CCCCC1)C(=O)[C@H](CC(=O)NCC13CC4CC(CC(C4)C1)C3)C2,x,-3,x
O=C(Nc1c(-c2ccccc2)[nH][nH]c1=O)c1ccc2ccccc2c1,x,1,x
CCOC(=O)[C@]12CCCC=C1N(CCc1ccc(OC)c(OC)c1)C(=O)[C@H](CC(=O)NCc1ccccc1)C2,x,-6,x
Cc1ccc(S(=O)(=O)N2[C@H](CC(=O)c3ccccc3)OC[C@@H]2C)cc1,x,7,x
COC(=O)[C@@]12C[C@@H](CC(=O)NCc3cccs3)C(=O)N(Cc3ccccc3)C1=CCC(C)(C)C2,x,-3,x
N#Cc1cccc(C2CC(OCCF)=CC(=O)O2)c1 (stereo not given),x,-2,x
Cc1ccc(S(=O)(=O)N2[C@H](CC(=O)OCc3ccccc3)OC[C@@H]2C)cc1,x,10,x
O=C(N[C@H]1CC[C@H](CC(=O)N2CCCCC2)O[C@@H]1CO)c1cccc(F)c1,x,-9,x
COc1ccc(N2C(=O)c3ccccc3NC(=O)C2C(=O)NCc2ccco2)cc1 (stereo not given),x,-4,x
O=C(NCc1ccco1)C1C(=O)Nc2ccccc2C(=O)N1C1CCCCC1 (stereo not given),x,3,x
CCCNC(=O)Nc1ccc2c(c1)OC[C@H](C)N(C(=O)C1CCCCC1)C[C@@H](C)[C@H](OC)CN(C)C2=O,x,0,x
CC(C)c1cc(Cn2c3ccccc3c(=O)n2C(C)Cn2cc(-c3ccc(C(C)(C)C)cc3)nn2)on1 (stereo not given),x,-10,x
CC(C(=O)NC1CCCC1)n1c(-c2ccncc2)nc2ccccc21 (stereo not given),x,2,x
Cc1nc2ccccc2n1C(C)c1nc2ccccc2n1CC(=O)c1ccc(OC(F)(F)F)cc1 (stereo not given),x,3,x
CC(c1nc2ccccc2[nH]1)n1c(=O)c(-c2cccs2)nc2ccccc21 (stereo not given),x,5,x
COc1ccc(CCC(=O)N2c3ccccc3N=C(c3ccc(C(F)(F)F)cc3)C2C(=O)NC(C)(C)C)cc1 (stereo not given),x,11,x
Cc1nc2ccccc2n1C(c1cccnc1)c1nc2ccccc2[nH]1 (stereo not given),x,-2,x
CN(C)C(=O)C[C@@H]1C=C[C@@H](NC(=O)C2CCC2)[C@@H](CO)O1,x,3,x
O=C(NCC[C@H]1CC[C@H](NS(=O)(=O)c2ccccc2F)[C@@H](CO)O1)c1ccc(F)cc1,x,2,x
Cc1cccc(-c2ccc(O)cc2CN2CCN(c3ncc(Cc4ccccc4)cn3)CC2)c1,x,-14,x
Cc1ccc(OCc2nc3ccccc3n2C(C)C(=O)Nc2c(C)cccc2C)cc1 (stereo not given),x,-10,x
COCCN1C(=O)CSCC1(C)C(=O)NCc1ccccc1 (stereo not given),x,-1,x
FC(F)(F)c1cc(Cc2nc3ccccc3n2C(CCc2ccccc2)c2nc3ccccc3[nH]2)cc(C(F)(F)F)c1 (stereo not given),x,-5,x
CC(C)(C)NC(=O)C(c1cc2ccccc2o1)n1c(-c2ccc(-c3ccccc3)cc2)nc2ccccc21 (stereo not given),x,-22,x
O=C(NCc1ccccc1)C1C(c2ccc3c(c2)OCO3)=Nc2ccccc2N1C(=O)c1ccccc1 (stereo not given),x,-8,x
Cc1cccc(C)c1NC(=O)C1(C)CN(S(C)(=O)=O)CC(=O)N1Cc1ccco1 (stereo not given),x,0,x

# Taken from above, 16 compounds:
SMILES,TRPML1 ag,Six1-Eya2 inh,PINK1 modulator
O=C(NCc1ccco1)C1C(=O)Nc2ccccc2C(=O)N1C1CCCCC1 (stereo not given),x,3,x
CCCNC(=O)Nc1ccc2c(c1)OC[C@H](C)N(C(=O)C1CCCCC1)C[C@@H](C)[C@H](OC)CN(C)C2=O,x,0,x
CC(C)c1cc(Cn2c3ccccc3c(=O)n2C(C)Cn2cc(-c3ccc(C(C)(C)C)cc3)nn2)on1 (stereo not given),x,-10,x
CC(C(=O)NC1CCCC1)n1c(-c2ccncc2)nc2ccccc21 (stereo not given),x,2,x
Cc1nc2ccccc2n1C(C)c1nc2ccccc2n1CC(=O)c1ccc(OC(F)(F)F)cc1 (stereo not given),x,3,x
CC(c1nc2ccccc2[nH]1)n1c(=O)c(-c2cccs2)nc2ccccc21 (stereo not given),x,5,x
COc1ccc(CCC(=O)N2c3ccccc3N=C(c3ccc(C(F)(F)F)cc3)C2C(=O)NC(C)(C)C)cc1 (stereo not given),x,11,x
Cc1nc2ccccc2n1C(c1cccnc1)c1nc2ccccc2[nH]1 (stereo not given),x,-2,x
CN(C)C(=O)C[C@@H]1C=C[C@@H](NC(=O)C2CCC2)[C@@H](CO)O1,x,3,x
O=C(NCC[C@H]1CC[C@H](NS(=O)(=O)c2ccccc2F)[C@@H](CO)O1)c1ccc(F)cc1,x,2,x
Cc1cccc(-c2ccc(O)cc2CN2CCN(c3ncc(Cc4ccccc4)cn3)CC2)c1,x,-14,x
Cc1ccc(OCc2nc3ccccc3n2C(C)C(=O)Nc2c(C)cccc2C)cc1 (stereo not given),x,-10,x
COCCN1C(=O)CSCC1(C)C(=O)NCc1ccccc1 (stereo not given),x,-1,x
FC(F)(F)c1cc(Cc2nc3ccccc3n2C(CCc2ccccc2)c2nc3ccccc3[nH]2)cc(C(F)(F)F)c1 (stereo not given),x,-5,x
CC(C)(C)NC(=O)C(c1cc2ccccc2o1)n1c(-c2ccc(-c3ccccc3)cc2)nc2ccccc21 (stereo not given),x,-22,x
O=C(NCc1ccccc1)C1C(c2ccc3c(c2)OCO3)=Nc2ccccc2N1C(=O)c1ccccc1 (stereo not given),x,-8,x

# Going on with the list:
SMILES,TRPML1 ag,Six1-Eya2 inh,PINK1 modulator
O=C(NCc1ccccc1)C(c1ccc(-c2ccccc2)cc1)n1c(=O)c(-c2cc3ccccc3[nH]2)nc2ccccc21 (stereo not given),x,-3,x
Cc1cc(/C=C2\C=Cc3ccccc32)cc(C)c1[N+](=O)[O-],0.2,x,0.3%
CN(C)c1ccc(/C=C/c2ccnc3ccccc23)cc1N,-0.1,x,6.8%
CCn1c2ccccc2c2nnc(SC3CCOC3=O)nc21 (stereo not given),-1.0,x,0.4%
Cc1ccc(C(=O)C(OC(=O)CNC(=O)COc2ccccc2C)c2ccccc2)cc1 (stereo not given),0.5,x,0.1%
